Source: PubChem BioAssay
RecA splice inh: Mtb RecA intein splicing inhibition; cell-free RecA intein splicing, fluorescence; inhibition, %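 (about 9 µM by stock and volumes)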; actives 0.75% (n = 290,000); in the data active = inhibition above about 30%; inconclusive = no clear call, values can overlap the other calls;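 note: 0% = vehicle wells and 100% = reference inhibitor control wells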
Target sequence (P9WHJ3 whole entry, looked up, canonical isoform): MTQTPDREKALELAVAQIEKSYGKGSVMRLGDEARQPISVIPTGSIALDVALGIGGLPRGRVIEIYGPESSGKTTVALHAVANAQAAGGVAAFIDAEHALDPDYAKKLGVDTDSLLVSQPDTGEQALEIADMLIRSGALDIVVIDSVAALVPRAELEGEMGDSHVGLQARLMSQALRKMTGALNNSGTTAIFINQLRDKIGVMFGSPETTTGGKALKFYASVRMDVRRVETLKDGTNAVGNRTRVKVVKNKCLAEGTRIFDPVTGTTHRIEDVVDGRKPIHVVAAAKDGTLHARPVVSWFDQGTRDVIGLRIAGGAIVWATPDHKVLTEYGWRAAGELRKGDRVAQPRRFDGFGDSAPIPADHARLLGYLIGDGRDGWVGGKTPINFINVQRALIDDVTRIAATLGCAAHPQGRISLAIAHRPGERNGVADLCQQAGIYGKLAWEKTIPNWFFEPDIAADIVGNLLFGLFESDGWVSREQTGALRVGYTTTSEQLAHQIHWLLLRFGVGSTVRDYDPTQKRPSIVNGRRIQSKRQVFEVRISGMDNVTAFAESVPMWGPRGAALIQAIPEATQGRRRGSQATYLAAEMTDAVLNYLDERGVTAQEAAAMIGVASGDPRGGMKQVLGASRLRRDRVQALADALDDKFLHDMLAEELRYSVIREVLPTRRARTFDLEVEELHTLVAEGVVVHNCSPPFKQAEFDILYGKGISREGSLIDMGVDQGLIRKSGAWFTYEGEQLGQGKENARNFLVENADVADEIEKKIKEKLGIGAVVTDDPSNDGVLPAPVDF
Mtb bLac sens: beta-lactam sensitization of Mtb H37Rv. inhibition, % at 25 µM. actives 0.27% (n = 330,000). M. tuberculosis H37Rv growth with meropenem, percent inhibition; hits of this screen are not shown here;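 active = about 74% or more and at least 40 points above the plate without the antibiotic, then above 30% in a dose series; inconclusive = first-round hits that could not be retested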;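 note: growth measured after seven days incubation then overnight dye step; 0% = bacteria only wells and 100% = bacteria with antibiotic; twin plates without the antibiotic show which effects depend on it; some results filed as inactive read as strong as hits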
YopH inh: inhibitors of Yersinia enterocolitica YopH tyrosine phosphatase. fluorescence Ex485/Em525. inhibition, %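 (about 10 µM by stock and volumes)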. actives 0.16% (n = 140,000);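 active = inhibition of 50% or more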;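 note: controls were vehicle for no effect and minimum signal wells for full effect; inactives centre near -20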
Arbovirus inh: blocks arbovirus infection; actives 0.37% (n = 200,000); inhibition, % at 10 µM; arbovirus infection cell-based antiviral screen;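 active = inhibition from about 30%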;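 note: bluetongue infection of BSR cells; cell survival read as ATP light after 72 h; 0% = infected wells without compound and 100% = uninfected wells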
Mtb growth: M. tuberculosis H37Rv growth inhibitors, H37Rv strain (AID 1626); M. tuberculosis H37Rv growth inhibition; higher % means a stronger effect; one-dose inhibition, % at 10 µM; IC50 in µM for titrated hits; actives 0.95% (n = 220,000);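 active = confirmed in a dose series; inconclusive = inhibition above 80% but not taken into the dose series; inactive = below 80% or under 30% at every dose of the series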;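 note: bacteria incubated seven days before Alamar blue readout; 0% = bacteria only wells and 100% = bacteria with antibiotic wells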
Arbovirus inh repeat: further read-out of Arbovirus inh, marked with its call; inhibition, %; measured here: 10K subset replicate screen; many hits read low in the repeat;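 first of two repeat runs on a subset; 0% = infected and 100% = uninfected wells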
* marks the source's active call; other numbers are inactive results; ? = inconclusive; . = not tested or not shown.

SMILES	RecA splice inh	Mtb bLac sens	YopH inh	Arbovirus inh	Mtb growth	others
COc1cccc(OCC(=O)NNC(=O)C(=O)Nc2cccc(C)c2)c1	2.7	98.6	.	.	.
COc1cc(CN2CCN(Cc3ccc4cc(F)ccc4n3)CC2CCO)cc(OC)c1 (stereo unspecified)	-2.9	-1.7	.	.	.
CC(=O)N1CC(=O)N=C1SCC(=O)Nc1nc(C)c(-c2ccccc2)s1	5.5	17.7	.	3.8	-3.2%
O=C(NCc1ccccc1Cl)C1CCC(=O)N1Cc1ccc(F)cc1 (stereo unspecified)	0.2	-1.1	.	.	.
CC(C)(C)NC(=O)CSc1nc(N)c(NC(=O)c2ccccc2F)c(=O)[nH]1	-4.1	5.5	.	7.8	0.3%
COC(=O)c1ccc(N=C2SCC(=O)N2C)cc1	-1.9	-6.1	.	.	.
O=[N+]([O-])c1ccc(C2=CSC3=NCCN23)cc1	-3.9	1.8	.	.	.
COc1ccccc1NC(=S)N(CCN1CCOCC1)Cc1ccccc1F	-1.3	12.6	.	-0.3	-1.7%
Cc1ccccc1-c1nnn(Cc2ccc(-c3nn[nH]n3)cc2)n1	1.1	0.2	.	0.0	-3.7%
COc1cc2[nH]c(=S)n(Cc3ccccc3)c(=O)c2cc1OC	3.0	1.6	.	-0.7	8.3%
O=C(CSc1nnc2n(C3CCCCC3)c(=O)c3ccccc3n12)OC1CCCCC1	2.2	-4.8	-35.3	5.4	0.5%
O=C(NNC(=O)C1CCC1)c1ccc(Br)cc1	-6.5	1.2	.	.	.
Cc1ccc(NC(=O)C(C)N2C(=O)c3ccccc3S2(=O)=O)cc1Cl (stereo unspecified)	-0.5	-3.7	.	.	.
Cc1ccc(N(C)S(=O)(=O)c2ccc3c(c2)CC(C)N3C(=O)C2CC2)cc1 (stereo unspecified)	0.4	2.8	.	.	.
COCCSc1ccccc1C(=O)N1CCC(Cc2ccccc2)CC1	8.0	-4.6	.	-11.4	0.9%
O=C(N/N=C/c1ccc[nH]1)c1cccc(Br)c1	1.2	86.7	-13.3	-4.5	1.2%
Cc1cc(C(F)F)n2nc(C(=O)Nc3c(F)cc(F)cc3Br)nc2n1	-1.2	-10.4	12.2	7.8	-8.8%
CC1CCN(C(=O)CNS(=O)(=O)c2ccc(Br)s2)CC1	-0.6	6.4	-6.8	-2.6	-9.0%
Cc1ccc2[nH]c3c(c2c1)CN(C(C)C)CC3	-2.7	-5.0	.	.	.
Nn1c(SCc2csc(-c3ccccc3)n2)nnc1-c1cccs1	-0.9	-8.8	8.6	-5.6	3.6%

Looked up one by one from above:
SMILES	RecA splice inh	Mtb bLac sens	YopH inh	Arbovirus inh	Mtb growth	others
CC1CCN(C(=O)CNS(=O)(=O)c2ccc(Br)s2)CC1	-0.6	6.4	-6.8	-2.6	-9.0%
O=C(CSc1nnc2n(C3CCCCC3)c(=O)c3ccccc3n12)OC1CCCCC1	2.2	-4.8	-35.3	5.4	0.5%
Cc1ccc(N(C)S(=O)(=O)c2ccc3c(c2)CC(C)N3C(=O)C2CC2)cc1 (stereo unspecified)	0.4	2.8	.	.	.
O=C(N/N=C/c1ccc[nH]1)c1cccc(Br)c1	1.2	86.7	-13.3	-4.5	1.2%
Cc1ccccc1-c1nnn(Cc2ccc(-c3nn[nH]n3)cc2)n1	1.1	0.2	.	0.0	-3.7%
Cc1cc(C(F)F)n2nc(C(=O)Nc3c(F)cc(F)cc3Br)nc2n1	-1.2	-10.4	12.2	7.8	-8.8%

Returning to the listing with the two entries that preceded the break.
SMILES	RecA splice inh	Mtb bLac sens	YopH inh	Arbovirus inh	Mtb growth	others
Cc1ccc2[nH]c3c(c2c1)CN(C(C)C)CC3	-2.7	-5.0	.	.	.
Nn1c(SCc2csc(-c3ccccc3)n2)nnc1-c1cccs1	-0.9	-8.8	8.6	-5.6	3.6%
Cc1ccc(NC(=O)CSc2nccn(-c3ccc4c(c3)OCCO4)c2=O)cc1	2.7	-1.5	.	.	.
CCOc1ccc(NC(=O)c2[nH]c(C)c(C(C)=O)c2C)cc1	1.1	5.0	.	.	.
O=C(O/N=C\c1ccc(N2CCCCC2)c([N+](=O)[O-])c1)c1cccc(Cl)c1	-0.4	71.7	-38.8	5.3	.
O=C1C2C3C=CC(CC3)C2C(=O)N1c1ccc(Cl)cc1Cl (stereo unspecified)	0.6	0.9	.	.	.
OCCOc1cccc(CN2CCC(CO)(CCOc3ccccc3)CC2)c1	2.9	5.2	.	-7.8	-7.1%
Cc1ccc(/C=C/C(=O)Nc2cccc3cccnc23)o1	3.0	10.1	-21.7	-9.1	-1.3%
CC(=O)NS(=O)(=O)c1ccc(N=NN2CCCCCC2)cc1	-0.1	-1.4	.	1.6	1.0%
O=C(Oc1ccc(Br)cc1C(=S)N1CCOCC1)c1ccccc1	7.6	-7.2	.	.	.
Cc1cc(C)n(C(=O)CCC(=O)NCc2ccccc2)n1	.	-0.9	-22.4	11.6	1.9%
Cc1oc(CC(C)C)c(CN2CCCC2)c1C(=O)O	1.8	-9.9	-28.6	-0.6	3.4%
Cc1cc(C)c2[nH]c(C)c(CN3CCCCCC3)c(=O)c2c1	-4.6	5.0	.	.	.
Cn1cccc1/C=C1\C(=O)NC(=O)N(Cc2ccccc2)C1=O	-24.4	?	.	.	-10.8%
COC(=O)C1CC(O)CN1C(=O)Nc1ccccc1 (stereo unspecified)	-1.3	2.9	.	2.6	-3.9%
CC1CCCCN1C(=S)NC(=O)c1cccs1 (stereo unspecified)	-1.8	90.5	.	.	?
Cc1cccc(Oc2ncc(-c3ccc(Cl)cc3)cn2)c1	0.6	-7.3	-39.6	5.8	.
Cn1c(=O)n(C)c2cc(NC(=O)c3ccccc3NS(C)(=O)=O)ccc21	-7.5	3.5	.	.	.
CN1CCN(CCC(=O)Nc2ccc(Br)cc2)CC1	0.9	-3.5	.	4.5	-2.5%
CN=C1SC(CC(=O)Nc2ccc(C(C)=O)cc2)C(=O)N1C (stereo unspecified)	-8.0	-0.1	-15.7	.	5.1%
COc1ccc(CCNC(=O)C2CCN(C(=O)c3ccccc3)CC2)cc1	-3.1	0.2	.	.	.
O=C(CCCn1c(=O)[nH]c2ccccc2c1=O)Nc1ccc(F)cc1	.	-1.6	.	10.9	-5.5%

No new results follow: 6 of the compounds above.
SMILES	RecA splice inh	Mtb bLac sens	YopH inh	Arbovirus inh	Mtb growth	others
Cc1ccc(NC(=O)CSc2nccn(-c3ccc4c(c3)OCCO4)c2=O)cc1	2.7	-1.5	.	.	.
CCOc1ccc(NC(=O)c2[nH]c(C)c(C(C)=O)c2C)cc1	1.1	5.0	.	.	.
O=C(O/N=C\c1ccc(N2CCCCC2)c([N+](=O)[O-])c1)c1cccc(Cl)c1	-0.4	71.7	-38.8	5.3	.
O=C1C2C3C=CC(CC3)C2C(=O)N1c1ccc(Cl)cc1Cl (stereo unspecified)	0.6	0.9	.	.	.
OCCOc1cccc(CN2CCC(CO)(CCOc3ccccc3)CC2)c1	2.9	5.2	.	-7.8	-7.1%
Cc1ccc(/C=C/C(=O)Nc2cccc3cccnc23)o1	3.0	10.1	-21.7	-9.1	-1.3%

The listing continues:
SMILES	RecA splice inh	Mtb bLac sens	YopH inh	Arbovirus inh	Mtb growth	others
COc1cc(OC)cc(C(=O)NN(CCC#N)C2=NS(=O)(=O)c3ccccc32)c1	-0.4	-6.5	.	.	.
CC(C)OC(=O)Cn1nc(C(c2ccccc2)c2ccccc2)oc1=O	9.8	-3.9	.	.	.
Cc1ccc(CCC(=O)Nc2ccccc2F)s1	1.1	-4.8	.	1.1	-7.2%
CCCN1Cc2cccc(C(=O)NC3CCCC3)c2C1=O	-3.0	-2.5	9.1	1.6	-15.8%
COc1ccc2c(c1)c(CC(=O)Nc1ccc(C(C)=O)cc1)c(C)n2C(=O)c1ccc(Cl)cc1	-0.9	-1.0	-16.3	18.3	11.1%
O=C(Nc1ccccc1)C1C2CCCCC21 (stereo unspecified)	-0.7	-4.1	.	.	.
CC1=NN(c2cccc(C(=O)O)c2)C(=O)/C1=C\C=C\c1ccco1	3.8	1.8	-13.6	12.9	.
O=C(Nc1cccc(F)c1)c1ccccc1-c1ccccc1	-4.3	3.8	-30.6	5.8	-5.6%
COc1ccc(C2C3=C(CC(C)(C)CC3=O)Nc3n[nH]c(C)c32)cc1 (stereo unspecified)	0.2	-8.6	-25.5	1.1	-3.1%	Arbovirus inh repeat=7.6
O=C1CN(C(=O)c2ccco2)C(c2ccc(F)cc2)c2cc(Cl)ccc2N1 (stereo unspecified)	4.6	-0.1	-27.4	.	-5.1%
OC(CNCCCN1CCCCC1)COc1ccccc1 (stereo unspecified)	0.8	-11.3	-28.0	-6.5	2.0%
COc1ccc(C(=O)Nc2cccc3nc(C)ccc23)cc1OC	0.7	-6.0	.	.	.
O=C(CN1C(=O)CCS(=O)(=O)c2ccccc21)NCc1ccc2c(c1)OCO2	-2.3	-1.5	-13.5	7.6	1.7%
Cc1c(CCC(=O)NCCCn2ccnc2)c(=O)oc2cc3occ(C(C)(C)C)c3cc12	1.4	12.6	.	.	.
CCOC(=O)Cn1c(N2CCCCCC2)nc2c1c(=O)[nH]c(=O)n2C	-1.2	-10.3	-38.7	4.3	-5.6%
COC(=O)c1cc(NC(=O)c2cccnc2)cc(C(=O)OC)c1	0.8	1.2	.	.	.
CNC(=O)c1[nH]cnc1C(=O)Nc1ccccc1C	0.8	70.0	-11.6	-3.5	-10.2%
CCOC(=O)c1[nH]c2ccccc2c1NC(=O)CN(C)C	.	-4.8	10.8	-0.9	1.7%
CCN(CC(=O)Nc1c(F)cccc1F)C(=O)CNC(=O)C1CCCCC1	0.3	-8.1	.	.	.
COc1ccc(CN(C)C(=O)c2sccc2-c2ccccc2)c(OC)c1	10.1	-13.7	.	.	.
Cc1ccc(CN2CC(C(=O)OCc3ccccc3Cl)CC2=O)cc1 (stereo unspecified)	4.2	90.9	.	.	.
Cc1ccc(C(=O)NCC(c2ccco2)N2CCc3ccccc3C2)cc1C (stereo unspecified)	13.2	-2.4	.	.	.
CN(c1ccc(OCC(=O)NCCc2ccccc2)cc1)S(=O)(=O)c1ccc(Cl)cc1	-2.8	-3.5	.	.	.
CC(=O)Nc1ccc(OCC(O)Cn2nc(C)c(C(C)=O)c2C)cc1 (stereo unspecified)	-0.5	2.4	-2.7	1.2	-5.8%
Cc1ccc(CN(C(=O)Cn2nnc3ccccc32)C(C(=O)NCc2ccco2)c2ccc(C)o2)cc1 (stereo unspecified)	0.6	-0.4	-27.4	7.5	-1.2%
C/C(=N\O)C(=O)NCC1CCNCC1	1.2	-6.9	-34.7	2.8	2.5%
COc1ccc2nnc(-c3ccc(C(F)(F)F)cc3)n2n1	2.0	-1.9	.	.	-0.8%
CC1C(=O)N(Cc2ccc(F)cc2)c2ccccc2N1C(=O)c1c(F)cccc1F (stereo unspecified)	8.3	1.6	.	.	.
Cc1ccc(CSc2nnc(-c3ccccn3)n2N)cc1	0.7	-0.6	.	.	-5.2%
Cc1ccccc1OCC1Cn2c(nc3c2c(=O)n(C)c(=O)n3C)O1 (stereo unspecified)	-1.6	-7.8	.	.	.
CCOC(=O)/C(=C/C=C1\Sc2cc(OCC)c(OCC)cc2N1CC)C(C)=O	-9.3	70.2	.	-18.5	.
C[n+]1ccccc1/C=C/c1ccc2ncccc2c1	-0.6	6.1	.	.	.
CC(C)c1ccc(C(=O)Nc2ccc(CN3CCOCC3)cc2)cc1	2.0	0.7	.	.	.
COc1ccccc1C(=O)NN=C1CCN(Cc2ccccc2)CC1	-3.2	0.9	-3.7	3.2	1.3%
Cc1ccc(CONC(=O)/N=C/N(C)C)cc1	-0.3	-7.2	-31.3	-6.6	-12.2%
CCCS(=O)(=O)N1CCCC(C(=O)NC2CCCCC2)C1 (stereo unspecified)	-1.1	-8.3	-28.0	3.4	-0.3%
C=C1C(=O)O[C@@H]2C[C@@H](C)[C@@H]3C4OC4C(=O)[C@@]3(C)[C@@H](O)[C@H]12 (stereo partly specified)	3.0	100.0	.	.	?

These rows are one share of the data, so the mix of outcomes need not match the whole.
